Assay outcomes (PubChem BioAssay)
Calb FLC – C. albicans growth inhibition with fluconazole, primary screen, CaCi-2 strain, Alamar Blue fluorescence; C. albicans CaCi-2 (fluconazole-resistant clinical isolate) + fluconazole, 48 h; growth inhibition, % (no concentration beside the values); hit rate 0.57% among 300,000;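 active = most replicates above 75%; inconclusive = exactly half above 75%; inactive = most below 75%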;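 also: all wells also contain fluconazole at 8 µg/ml as a sub-toxic cotreatment; 0% = median of DMSO wells and 100% = median of geldanamycin control wells; wells of about 8 µL received 7.5 nL stock; the first replicate is given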
Ecoli rRNA inh – reduced GFP signal of wild-type E. coli, primary screen, bacterial rRNA inhibitor project, GFP/RFP fluorescence, OD600, single point; E. coli WT GFP vs humanized-ribosome RFP mutants, 24 h; stronger effect = lower value; DMSO median 0, no signal -100; GFP signal change (wild-type ribosome), % (test concentration not listed); hit rate 1.6% among 350,000;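 active = significant combined selectivity score with lowered wild-type GFP, culture density cut under 30%, mutant RFP and density less affected; inactive = any of these conditions unmet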; also: one replicate is shown; some compounds called inactive have numbers as strong as hits
Beta cell apopt – inhibitors of cytokine-induced beta cell apoptosis, primary screen, luminescence | INS-1E cytokine-induced death, ATP luminescence, 48 h; percent of positive-control rescue, neutral wells zero | protection from apoptosis, % (test concentration not listed) | hit rate 0.8% among 300,000 | AID 435005, 2010;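 active = all replicates at 75% or more, or half of them and the mean; inconclusive = half reach 75% but not the mean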;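 also: 0% = cytokine-treated negative control wells and 100% = positive control rescue; higher means more ATP so stronger rescue from cytokine killing; wells of about 40 µL received 100 nL stock; the first replicate is given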
T cruzi inh – inhibitors of intracellular T. cruzi growth, primary screen, luminescence, NIH3T3 host cells | T. cruzi beta-gal in NIH3T3, 90 h | inhibition, % (test concentration not listed) | AID 1885, 2009 | hit rate 1.4% among 300,000;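 active = mean inhibition across valid replicates above about 55%, limit read from the data; inconclusive = mean below that limit but half or more replicates reach it; inactive = mean below it, under half of replicates reach it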;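 also: signal also drops with host cell toxicity which is not excluded here; 0% = plate median of DMSO wells and 100% = zero luminescence signal; higher percent means less beta-gal luminescence so fewer parasites; stock transfer was 50 nL into about 50 µL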
RanGTP-Impb inh – inhibitors of RanGTP-importin-beta interaction, primary screen, biochemical, FRET, CFP-Ran, YFP-importin-beta, homogeneous; Ran GTPase (GTP-bound) - importin-beta complex; cell-free CFP-Ran/YFP-importin-beta FRET ratio; inhibition, % (no concentration beside the values); hit rate 1.1% among 300,000;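 active = most replicates above 15%; inconclusive = exactly half above 15%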;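 also: 0% = DMSO wells and 100% = Ran loaded with GDP instead of GTP; wells of about 40 µL received 100 nL stock; the first replicate is given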
MLL AF4-AF9 inh – inhibitors of AF4 peptide binding to AF9, primary screen, biochemical, AlphaScreen, biotin-AF4 peptide, FLAG-AF9, single point | Protein AF-9 (Homo sapiens), P42568 | inhibition, % at 10 µM | hit rate 0.47% among 350,000 | AID 651704, 2012;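 active = every replicate reaching a set inhibition limit, whatever the replicate mean, cut at about 25% in these data; inconclusive = mean inhibition reaches that limit but some replicates miss it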;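 also: 0% = plate neutral control median and 100% = total signal loss; the record names both 10 and 1 µM as test concentration; the first replicate is given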
Target sequence (P42568 whole entry, looked up): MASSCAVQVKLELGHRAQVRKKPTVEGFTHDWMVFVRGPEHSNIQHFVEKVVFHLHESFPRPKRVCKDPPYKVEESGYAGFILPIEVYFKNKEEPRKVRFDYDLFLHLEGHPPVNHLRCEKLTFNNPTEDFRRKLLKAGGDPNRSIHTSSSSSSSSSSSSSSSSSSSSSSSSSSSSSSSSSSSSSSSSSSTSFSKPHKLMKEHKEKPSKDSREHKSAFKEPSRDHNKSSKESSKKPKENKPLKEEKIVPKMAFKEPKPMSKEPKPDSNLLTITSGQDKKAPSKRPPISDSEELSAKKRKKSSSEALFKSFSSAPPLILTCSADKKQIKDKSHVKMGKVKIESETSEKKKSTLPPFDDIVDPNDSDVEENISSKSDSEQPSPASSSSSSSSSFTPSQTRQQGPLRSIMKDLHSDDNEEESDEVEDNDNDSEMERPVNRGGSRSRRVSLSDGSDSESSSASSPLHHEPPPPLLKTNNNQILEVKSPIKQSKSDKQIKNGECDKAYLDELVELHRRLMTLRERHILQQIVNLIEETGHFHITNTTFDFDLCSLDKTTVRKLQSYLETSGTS
FGF22 binding – binders of human FGF22 protein, primary screen, FGF22 synaptogenesis inhibitor project, biophysical, thermal shift, single point; calls only at 9.99 µM; recombinant FGF22 thermal shift, SYPRO orange fluorescence; percent of sucrose octasulfate shift, DMSO zero; hit rate 1.5% among 340,000; AID 651658, 2012;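 active = melting point raised past a set limit in the mean and every replicate; inconclusive = no clear call; three in four hits are not shown here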
Target sequence (Q9HCT0 whole entry, looked up): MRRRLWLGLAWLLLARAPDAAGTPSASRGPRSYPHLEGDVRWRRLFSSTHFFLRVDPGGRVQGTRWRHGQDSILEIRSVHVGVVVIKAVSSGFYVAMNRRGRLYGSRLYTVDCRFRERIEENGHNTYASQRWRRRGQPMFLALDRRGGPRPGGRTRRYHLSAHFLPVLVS
ALR H2O2 inh – inhibitors of human ALR sulfhydryl oxidase, primary screen, biochemical, H2O2 detection, HRP-luminol luminescence, single point; purified ALR, DTT oxidation; FAD-linked sulfhydryl oxidase ALR (Homo sapiens), P55789; hit rate 3.8% among 290,000; inhibition, % (no concentration beside the values);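 active = mean and each replicate at 75% or more; inconclusive = only one of the two met; inactive = neither met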;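 also: stock transfer was 7.5 nL into about 7.5 µL; 0% = neutral wells and 100% = wells with inactivated enzyme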
Target sequence (P55789 whole entry, looked up): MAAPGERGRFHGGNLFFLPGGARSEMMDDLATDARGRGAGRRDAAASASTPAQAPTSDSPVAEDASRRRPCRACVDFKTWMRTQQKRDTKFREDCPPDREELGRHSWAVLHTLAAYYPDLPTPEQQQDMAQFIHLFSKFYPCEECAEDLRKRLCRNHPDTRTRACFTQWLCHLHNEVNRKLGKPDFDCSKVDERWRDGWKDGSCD
Ecoli rRNA inh OD600 – second read-out of Ecoli rRNA inh, no call of its own (marks repeat the call); OD600 change, %; measured here: OD600 growth;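 optical density of the mix in the first replicate; 0 = DMSO median and -100 = no signal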
Ecoli rRNA inh RFP – further read-out of Ecoli rRNA inh, marked with its call; RFP signal change, %; measured here: RFP humanized mutant strains;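 first replicate; 0 = DMSO median and -100 = no signal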
* = called active by the depositor; i = inactive; u = inconclusive; x = no result given. Not all compounds are listed. The share of hits here may be higher or lower than overall.

SMILES	Calb FLC	Ecoli rRNA inh	Ecoli rRNA inh OD600	Ecoli rRNA inh RFP	Beta cell apopt	T cruzi inh	RanGTP-Impb inh	MLL AF4-AF9 inh	FGF22 binding	ALR H2O2 inh
Cc1cccc(Nc2nc(N)c([N+](=O)[O-])c(N3CC(C)CC(C)C3)n2)c1 (centres undefined)	2	1	4	3.5	u	19	2.5	24	i	24
O=C(N/N=C/c1ccccc1[N+](=O)[O-])c1cnccn1	-2	10	5	1.3	-36	-4	-2.7	x	i	5
CC(C)CN(C(=O)COC(=O)c1ccc2c(c1)NC(=O)CS2)C1CCS(=O)(=O)C1 (centres undefined)	-3	x	x	x	-1	-1	-4.6	x	x	-17
Cc1cc(C)n(CCOC(=O)c2sc3ccccc3c2Cl)n1	1	x	x	x	-3	-5	0.1	x	x	2
CC(=O)Nc1ccc2oc(-c3cc(F)c(F)cc3Cl)nc2c1	9	x	x	x	1	-8	-0.5	x	x	16
O=C(CNC(=O)OCc1ccccc1)Oc1ccc2ccc(=O)oc2c1	2	10	15	-1.1	3	-12	13	0.0	i	x
COC(=O)c1ccccc1NC(=O)c1ccc(-c2ccc(Br)cc2)o1	7	x	x	x	10	-5	1.5	x	x	0
Cc1cc(C)n2nc(SCCC(=O)NCc3ccccc3)nc2n1	-2	9	-8	-4.1	-2	6	-2.1	-0.7	x	-1
CCOC(=O)C1=C(O)/C(=C\c2cccs2)N=C1C	-7	x	x	x	1	-6	6.1	x	x	0
CC(C)NS(=O)(=O)c1ccc(CCC(=O)Nc2ccc3c(c2)OCO3)cc1	-10	4	-2	-0.5	7	-14	-2.0	-50	i	-2

4 compounds drawn at random from the list so far:
SMILES	Calb FLC	Ecoli rRNA inh	Ecoli rRNA inh OD600	Ecoli rRNA inh RFP	Beta cell apopt	T cruzi inh	RanGTP-Impb inh	MLL AF4-AF9 inh	FGF22 binding	ALR H2O2 inh
O=C(N/N=C/c1ccccc1[N+](=O)[O-])c1cnccn1	-2	10	5	1.3	-36	-4	-2.7	x	i	5
Cc1cc(C)n(CCOC(=O)c2sc3ccccc3c2Cl)n1	1	x	x	x	-3	-5	0.1	x	x	2
Cc1cccc(Nc2nc(N)c([N+](=O)[O-])c(N3CC(C)CC(C)C3)n2)c1 (centres undefined)	2	1	4	3.5	u	19	2.5	24	i	24
CC(C)NS(=O)(=O)c1ccc(CCC(=O)Nc2ccc3c(c2)OCO3)cc1	-10	4	-2	-0.5	7	-14	-2.0	-50	i	-2

Additional structures follow:
SMILES	Calb FLC	Ecoli rRNA inh	Ecoli rRNA inh OD600	Ecoli rRNA inh RFP	Beta cell apopt	T cruzi inh	RanGTP-Impb inh	MLL AF4-AF9 inh	FGF22 binding	ALR H2O2 inh
CCc1nnc(NC(=O)Cn2nnc(-c3ccccc3F)n2)s1	22	x	x	x	-6	-5	-2.8	x	x	-3
O=C(CN1C(=O)NC2(CCCC2)C1=O)N1CCN(c2cccc(C(F)(F)F)c2)CC1	9	-6	-13	-0.6	-8	4	x	-14	i	-1
O=S(=O)(c1cccs1)N1CCC(Cc2ccccc2)CC1	-8	x	x	x	4	20	-1.0	x	x	-10
CCN(Cc1ccccc1)S(=O)(=O)c1cc(C(=O)NCC2CCCCC2)ccc1OC	34	-18	-27	6.3	36	26	0.4	-1.3	i	-5
Cc1ccccc1NC(=O)c1ccc2snnc2c1	3	7	13	17	4	-15	6.1	3.8	i	x
Cc1cc(C)c(S(=O)(=O)N2CCc3ccccc32)c(C)c1	7	-14	-12	-8.1	-8	18	9.7	-3.9	i	-1
Cn1c(CN2CCN(c3ccccc3NS(C)(=O)=O)CC2)nc2ccccc21	-19	2	12	-0.1	-9	3	-0.6	-2.1	i	29
CCOc1ccccc1N1C(=O)CC(Sc2nccc(C)n2)C1=O (centres undefined)	-6	2	6	-0.6	-6	-5	-0.9	-0.2	i	0
O=C(CSc1nnc(NC(=O)c2ccco2)s1)Nc1ccccc1Cl	-8	4	10	-4.2	-4	-18	1.3	-1.7	i	-5
CCCC(=O)Nc1ccc(C(=O)n2nnc3ccccc32)cc1	14	x	x	x	x	2	-1.5	x	x	0
CCOc1ccc(C2=Nn3c(nnc3-c3cccnc3)SC2)cc1	-6	x	x	x	4	-10	6.1	x	x	-4
CN(C(=O)CN1C(=O)S/C(=C\c2ccccc2)C1=O)C1CCS(=O)(=O)C1 (centres undefined)	-7	4	10	0.8	-5	-17	6.0	2.3	i	-4
CC(C)CC(NC(=O)C1CCC(=O)N1C(=O)OCc1ccccc1)C(=O)NC(Cc1ccccc1)C(N)=O (centres undefined)	-1	6	21	1.2	5	-1	-3.9	0.4	i	0
CC1(C)Cc2nc3sc4c(=O)n(Cc5ccccc5)cnc4c3cc2CS1	-5	-11	-17	-5.3	-2	21	1.1	-94	i	16
O=C(CSc1nnnn1-c1ccccc1F)NNC(=O)c1ccco1	-19	12	0	1.1	-2	-6	-1.6	-1.8	i	-2
CC(C)=CCN1CCN(Cc2ccc(C#CC(C)(C)O)cc2)CC1CCO (centres undefined)	-6	4	12	0.8	-9	2	1.0	-3.1	i	-5
O=C(Nc1ccc(Oc2ncnc3cc(Cl)ccc23)nc1)c1cccs1	0	13	14	1.4	54	1	5.5	-2.6	i	-2
CC(C)(C)C(=O)Cn1ncc(Br)c(Br)c1=O	30	11	10	-0.6	x	61*	7.0	u	i	x
O=C1COc2ccc(S(=O)(=O)CCC(=O)N3CCN(c4ccccc4)CC3)cc2N1	0	1	9	0.9	x	-2	0.8	6.1	i	98*
CCCNc1nc(-c2cc(C(=O)Nc3ccccc3)on2)cc(C(C)C)n1	-6	2	-21	-0.1	0	23	5.5	-2.6	i	7
Nc1nnn(CC(=O)N/N=C/c2ccccc2)n1	-2	11	10	-3.0	-9	-6	u	-1.6	i	-1
Cc1ccc(/C=C/c2nnc(-c3ccccc3)o2)cc1	6	x	x	x	1	-2	u	x	x	-2
Cc1csc(CNC(=O)c2cc(COc3c(C)cccc3C)on2)n1	17	-10	-37	-7.0	0	19	-1.5	-3.4	i	0
Cc1nc(-c2ccc(Cl)cc2)sc1C1(C)CC(c2ccc(Cl)cc2)=NO1 (centres undefined)	-11	14	10	-5.0	-5	-2	-1.9	-5.7	i	-15
COc1ccc([C@@H]2[C@@H]3C(=O)N(C(C)(C)C)C(=O)[C@@H]3[C@]3(Cc4ccc(Cl)cc4)C(=O)N(c4ccc(Br)cc4)C(=O)N23)cc1	25	5	-1	-10	7	29	-0.4	4.4	i	1
CC1CCN(C(=O)Cn2cc(C(F)(F)F)ccc2=O)c2ccccc2S1 (centres undefined)	x	-8	-12	0.6	4	x	x	-2.2	i	-1
CC(=O)c1c(C)[nH]c(C(=O)Nc2ccc(F)c(F)c2F)c1C	-2	3	-1	0.2	-5	-2	1.7	-9.9	i	3
Cc1ccc(C(=O)N2CCCC(C(F)(F)F)C2)cc1S(=O)(=O)N1CCCCC1 (centres undefined)	-4	-1	-3	-1.2	0	12	1.1	-4.7	i	0
COc1ccccc1-n1c(SCC(=O)Nc2cccc(C(=O)O)c2)nnc1-c1ccccc1C	-9	-4	-7	-1.2	x	-5	-3.5	-3.0	i	5
COc1ccccc1N1CCN(C(=O)CN2C(=O)C3CCCCC3C2=O)CC1 (centres undefined)	-7	12	-1	-4.7	-3	15	-0.3	-1.6	i	7

As a working copy, two of the compounds above.
SMILES	Calb FLC	Ecoli rRNA inh	Ecoli rRNA inh OD600	Ecoli rRNA inh RFP	Beta cell apopt	T cruzi inh	RanGTP-Impb inh	MLL AF4-AF9 inh	FGF22 binding	ALR H2O2 inh
Nc1nnn(CC(=O)N/N=C/c2ccccc2)n1	-2	11	10	-3.0	-9	-6	u	-1.6	i	-1
Cc1ccc(/C=C/c2nnc(-c3ccccc3)o2)cc1	6	x	x	x	1	-2	u	x	x	-2

(further entries)
SMILES	Calb FLC	Ecoli rRNA inh	Ecoli rRNA inh OD600	Ecoli rRNA inh RFP	Beta cell apopt	T cruzi inh	RanGTP-Impb inh	MLL AF4-AF9 inh	FGF22 binding	ALR H2O2 inh
c1ccc2nc3c(nc2c1)CCCC3	0	8	11	2.1	x	-9	-2.0	-6.5	i	x
CCOC(=O)C1CCN(C(=O)COc2ccc(S(=O)(=O)N3CCCC3)cc2C)CC1	-1	4	0	-11	x	14	2.9	-1.7	i	-15
COc1ccc2nc(N3CCC(O)CC3)c(C#N)cc2c1	-1	x	x	x	-8	-11	51*	x	x	-32
Cc1cc(SCC(=O)c2ccc(O)c(O)c2)n2nc(C)c(-c3ccccc3)c2n1	u	-54	-73	-33	0	21	-1.3	u	x	96*
O=S(Cc1ccc(Br)cc1)Cc1nnc(SCc2c(F)cccc2Cl)n1-c1ccccc1 (centres undefined)	20	x	x	x	35	7	0.6	x	x	-54
COc1ccccc1CN(C)C(=O)CSCC(=O)Nc1ccccc1F	x	x	x	x	-2	x	x	-0.6	i	7
O=C1c2ccccc2C(=O)N1CC(=O)N1c2ccccc2CCc2ccccc21	4	x	x	x	-4	5	6.2	x	x	-1
Cc1ccc(OCCCCN2CCC(C)CC2)cc1	-19	x	x	x	3	8	1.2	x	x	-2
COc1ccc(-c2nc3scc(-c4ccc(OC)c(OC)c4)c3c(=O)o2)cc1	3	x	x	x	2	20	1.1	x	x	-2
O=C(NCc1ccc(Cl)cc1)C(=O)NCC1OCCN1C(=O)c1cccs1 (centres undefined)	6	x	x	x	-2	0	1.4	x	x	-6
Cc1cc(=O)[nH]c(Nc2cccc(F)c2)n1	5	5	11	-0.7	2	-2	0.5	-0.5	i	x
CC(C)(C)N(Cc1cc2ccccc2[nH]c1=O)C(=O)c1ccco1	1	16	14	3.1	-2	-5	4.1	-2.4	i	-11
COC(=O)C1=C2SC(C)C(=O)N2C(N)=C(C#N)C1c1ccc(OC)c(OC)c1 (centres undefined)	11	x	x	x	-7	-13	4.3	x	x	15
O=C(NC(=S)NCc1cccnc1)c1cc(Br)ccc1Cl	23	-23	-16	-4.0	-2	-2	4.3	-1.0	i	0
Cc1ccc(C(=O)COC(=O)CNC(=O)CNC(=O)c2ccc(C)cc2)cc1	-5	x	x	x	-3	-2	1.6	x	x	-1
CN(C)S(=O)(=O)N1CCC(Oc2cccc(C(=O)NC3CCCCC3)c2)CC1	-7	-11	-12	-1.0	32	-14	4.8	-3.2	i	13
CCC(=O)NC(=S)Nc1cccc(NC(=O)c2ccccc2Cl)c1	24	x	x	x	-5	17	-0.1	x	x	-1
Cc1ccc(-n2c(N)c(C(=O)Nc3ccccc3F)sc2=S)cc1C	-3	-5	-1	0.3	-2	38	-8.1	-0.4	i	-3
Oc1ccc(Cl)cc1-c1cc(-c2ccco2)[nH]n1	2	x	x	x	-8	-9	4.2	x	x	11
